HPGD block – blocks human HPGD enzyme activity; P15428; Potency, µM, without a hit: at the top dose activity change, negative = inhibition, usual class: inhibitors; 150,000 compounds, 4.3% hits; purified HPGD, NADH fluorescence kinetic, PGE2 substrate; active = well fitted inhibition curve with a large enough effect (not every such curve was filed as active); inconclusive = small, poorly fitted or top-dose-only effect, or another doubt; inactive = no such curve, though single readings can be large or run the other way;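 further: top concentration of the series not given in the record; plate controls included wells without enzyme; inactives centre near -10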
Target sequence (P15428 whole entry, looked up): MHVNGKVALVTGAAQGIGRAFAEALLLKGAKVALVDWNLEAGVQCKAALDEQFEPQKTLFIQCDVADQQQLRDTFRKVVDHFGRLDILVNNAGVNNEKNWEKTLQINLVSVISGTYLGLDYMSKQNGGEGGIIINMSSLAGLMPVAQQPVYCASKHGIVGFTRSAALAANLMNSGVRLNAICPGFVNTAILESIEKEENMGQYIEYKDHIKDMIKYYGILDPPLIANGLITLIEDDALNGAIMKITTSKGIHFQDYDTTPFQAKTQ
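20 nM HPGD preincubated 15 min at room temperature with compound in 50 mM Tris-HCl pH 8, 0.01% Tween 20. Started with 1 mM NAD+ and 30 uM prostaglandin E2; NADH fluorescence (360/450 nm) read 5 times over 30-s intervals, last minus first.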
* hit, by the source's call; ? = inconclusive; & = joins results of further samples. On the % scale 0 is the no-effect control and ±100 the full control effect; potency means the concentration at half of the fitted maximal effect.

SMILES | HPGD block
Clc1ccc(-n2nnnc2CN2CCOCC2)cc1 | -1%
CCC(C)N1C(=O)S/C(=C/c2ccc(Sc3nc4ccccc4[nH]3)o2)C1=O (configuration not stated) | ?
COc1ccc(/C=N/OCc2nc3c4c(ncn3n2)Oc2ccc3ccccc3c2C4c2ccccc2)cc1 (configuration not stated) | ?
C/C(=N\NC(=O)c1csc(C)c1C)c1ccc(Cl)s1 | ?
COc1ccccc1N1CCN(S(=O)(=O)/C=C/c2ccccc2)CC1 | -20%
CCOC(=O)/C=C1\SCC(=O)N1CC(=O)NC(C)c1ccc(F)cc1 (configuration not stated) | -12%
Cc1cccc(NC(=O)CSc2nc3[nH]ncc3c(=O)[nH]2)c1 | -11%
Cc1cc(C)n(Cc2ccccc2F)c(=O)c1C#N | -30%
Cc1c(NS(=O)(=O)c2ccc(N3CCCCC3)c([N+](=O)[O-])c2)c(=O)n(-c2ccccc2)n1C | -4%
Cc1ccc2nc(-c3ccncc3)cc(-c3ccccc3)c2c1 | -17%
COc1ccc(CN(C(=O)c2ccco2)c2ccc(C)cc2)cc1OC | -7%
CCN(CC)c1cc(C)c2cc(NC(=O)c3ccc(Br)o3)ccc2n1 | -28%
CCN(CC)S(=O)(=O)c1ccc2c(c1)c(=O)c(C(=O)N1CCOCC1)cn2C | -2%
CC1=N/C(=C/c2ccc([N+](=O)[O-])cc2)C(=O)N1c1ccc(Cl)cc1Cl | ?
Cc1cc(C)cc(N(CC(=O)N2CCOCC2)S(=O)(=O)c2ccccc2)c1 | -3%
CCC12CN3CC(CC)(CN(C1)C3c1ccccc1Cl)C2O (configuration not stated) | -3%
COc1ccc(-c2cc(C(=O)NCc3cn(C)nc3C)c3ccccc3n2)cc1OC | -10%
CCS(=O)(=O)N1CCCC(C(=O)NCCN(C)Cc2ccccc2)C1 (configuration not stated) | -5%
CCOc1cc(C(=O)N/N=C/C2CC=CCC2)cc(OCC)c1OCC (configuration not stated) | -17%
CCOC(=O)CN(C(=O)CSc1nnc(-c2ccc(OC)c(OC)c2)o1)c1ccc(F)cc1 | -12%
CC1CN(C(=O)c2c([N+](=O)[O-])cnn2C)CC(C)O1 (configuration not stated) | -10%
CCCSc1nnc(-c2cccc(S(=O)(=O)N(C)C)c2)n1-c1cc(OC)ccc1OC | -19%
COc1ccc(-c2nc(C#N)c(NCc3ccccc3Cl)o2)cc1OC | ?
CCN1CC2CCCC3(C1)C(=O)NC1(CCCCC1)N=C23 (configuration not stated) | -10%
Cc1nccn1Cc1cccc2ccccc12 | -12%

Random excerpt: five compounds from above, in no set order.
SMILES | HPGD block
COc1ccc(-c2nc(C#N)c(NCc3ccccc3Cl)o2)cc1OC | ?
CCC12CN3CC(CC)(CN(C1)C3c1ccccc1Cl)C2O (configuration not stated) | -3%
CCN1CC2CCCC3(C1)C(=O)NC1(CCCCC1)N=C23 (configuration not stated) | -10%
CCS(=O)(=O)N1CCCC(C(=O)NCCN(C)Cc2ccccc2)C1 (configuration not stated) | -5%
C/C(=N\NC(=O)c1csc(C)c1C)c1ccc(Cl)s1 | ?

Additional results.
SMILES | HPGD block
N/C(=N\OC(=O)c1ccc2c(c1)OCO2)c1ccc(Cl)cc1 | -18%
COc1ccc(CCNc2cc(C)nc3c(-c4ccccc4)cnn23)cc1OC | ?
CN(C)S(=O)(=O)Oc1ccsc1C(=O)Nc1ccc(Cl)cc1 | -9%
CCOC(=O)CCCNC(=O)CCNC(=O)c1ccc(OC)cc1 | -7%
COc1cccc(NC(=O)CCN2CCN(c3ccccc3F)CC2)c1 | -10%
CCOC(=O)c1c(NC(=O)C2CCN(S(=O)(=O)c3ccc(Cl)cc3)CC2)sc2c1CCCC2 | -27%
O=C(C1CCCCC1)N1CCN(S(=O)(=O)c2ccc(Br)cc2)CC1 | -7%
O=c1c(F)cn(C2CCCO2)c(=O)n1Cc1ccccc1F (configuration not stated) | -3%
COc1ccc(CCNC(=O)c2[nH]c(C)c(C(C)=O)c2C)cc1 | -4%
Cc1ccc(CCN2CC(C(=O)NCCN3CCCCCC3)CC2=O)cc1 (configuration not stated) | 2%
CCCn1c2ccccc2c2nnc(SC(CC)C(=O)Nc3sc4c(c3C#N)CCCC4)nc21 (configuration not stated) | -27%
CNS(=O)(=O)c1cnccc1N1CCN(c2cccc(C)c2)CC1 | -10%
Clc1ccc2c(NCCNC3CCCCC3)ccnc2c1 | ?
O=C(COC(=O)C1=COCCO1)NCCCc1ccccc1 | -4%
Cc1nc2ccccc2n1CC(=O)NCc1ccccc1 | 1%
Cc1cc(C(=O)CSc2nnc(-c3ccccc3)o2)c(C)n1CC1COc2ccccc2O1 (configuration not stated) | -16%
O=S(=O)(Cc1ccccc1)N1CCCCCC1 | 0%
CCc1cccc(NC(=O)NC2CCCCC2)c1 | -15%
Cc1ccc(C(=O)COC(=O)CCCC(=O)Nc2cc(C(F)(F)F)ccc2Cl)cc1C | -14%
COc1ccc(C(=O)OCC(=O)Nc2ccc(Cl)c(C(F)(F)F)c2)c(OC)c1OC | -18%
CC(=O)NNS(=O)(=O)c1ccccc1[N+](=O)[O-] | -10%
O=C(Nc1ccccc1C(=O)Nc1ccc2c(c1)OCO2)c1ccco1 | -15%
CCO/C(C)=C1\N=C(c2ccc(Cl)cc2)OC1=O | -21%
COc1ccc(CN(C)C2CCCCC2)cc1 | -11%
CCOC(=O)N1CCC(NC(=O)c2ccc(OC)c(CN3CC(=O)N4CCCC4C3=O)c2)CC1 (configuration not stated) | -6%
SMILES | HPGD block
CCn1nc(C(=O)NNC(=O)COc2ccc(OC)cc2)c2ccccc2c1=O | 0%
Cc1ccc2cc(CCNS(=O)(=O)c3ccc(F)cc3)c(=O)[nH]c2c1 | -20%
CC(=O)Nc1ccc(C(=O)OCC(=O)c2cccc([N+](=O)[O-])c2)cc1 | -17%
Cn1c(SCC(=O)Nc2ccc(N3CCOCC3)cc2)nnc1-c1ccccc1 | 2%
CC(C)c1ccc2c(c1)CC[C@H]1[C@](C)(CN)CCC[C@]21C | 1%
CCC1=C(OC(=O)N(CC)CC)N2C(=O)OC(=NCCc3c[nH]c4ccccc34)[C@]2(C)[C@H]2C1=CC[C@H]1C(=O)N(C)C(=O)[C@H]12 | -15%
C/C=C\c1ccc(OC)cc1 | 0%
CCOC(=O)C(=O)Nc1ccc(S(=O)(=O)N2CCOCC2)cc1OC | -5%
CCc1ccc(NC(=O)CSc2nnc(Cc3cccn3C)n2-c2ccc(OC)cc2)cc1 | -9%
CCOC(=O)c1cc(CC)sc1NC(=O)c1cc(OCC)c(OCC)c(OCC)c1 | ?
CCOCc1nnc(NC(=O)COC)s1 | ?
CCCc1nc([N+](=O)[O-])c(S(=O)(=O)c2ccccc2)n1CC(C)C | -7%
CC1CN(c2cc(-c3ccccc3)c3ccccc3n2)CC(C)O1 (configuration not stated) | ?
CN(C)/C=C1\C(=O)Nc2ccccc21 | -13%
COc1ccc(OCCOCC(O)CN2CCOCC2)cc1 (configuration not stated) | -4%
CC(=O)C1=C(C)N(Cc2ccccc2)C(=O)N[C@H]1CCc1ccccc1 | 1%&-7%
CN(C)CCNCCN | -6%
COc1ccccc1NS(=O)(=O)/C=C/c1ccccc1 | -6%
COC(=O)CCSc1cc([N+](=O)[O-])cc2c1c(C1OCCO1)nn2-c1ccccc1 | ?
CCN(CC)c1ccc(/C=N\NC(N)=O)cc1 | ?
CN1CCN(CN2C(=O)C3C4C=CC(C3C2=O)C2C3C(=O)N(CN5CCN(C)CC5)C(=O)C3C42)CC1 (configuration not stated) | -3%
Cc1nc(C)c(C(=O)Nc2ccc(C)c(F)c2)o1 | -23%
O=C(O)CCN1C(=O)/C(=C/c2ccc(-c3nc4ccccc4s3)o2)SC1=S | 13µM*
CCN1C(=O)/C(=C2/C=Cc3ccccc3N2C)OC1=S | -5%
Cc1cccc(NC(=O)c2ccc(NCC3CCCO3)c([N+](=O)[O-])c2)c1 (configuration not stated) | -14%

Individual results from the results shown:
CCOC(=O)C(=O)Nc1ccc(S(=O)(=O)N2CCOCC2)cc1OC in HPGD block → -5%
CCc1ccc(NC(=O)CSc2nnc(Cc3cccn3C)n2-c2ccc(OC)cc2)cc1 in HPGD block → -9%

(cont.)
SMILES | HPGD block
COC(=O)CC1c2ccccc2C(Cc2ccc3c(c2)OCO3)=C(C)N1C(=O)OC (configuration not stated) | -7%&-16%
O=C(NC1CC2CCC(C1)N2C(=O)NC1CCCCC1)NC12CC3CC(CC(C3)C1)C2 (configuration not stated) | -3%
Nc1c(C(=O)NCc2ccccc2)c2nc3ccccc3nc2n1CCCN1CCOCC1 | ?
COc1ccc(CNC(=O)c2sc(=S)n(-c3ccc(OC)cc3)c2N)cc1 | 32µM*
CCOCCCNC(=O)c1ccc(CS(=O)(=O)Cc2ccc(C)cc2)o1 | -9%
O=C(COc1ccc(-c2nnco2)cc1)NC1CCCc2ccccc21 (configuration not stated) | -7%
CC(C)(C)C(=O)Oc1cc(N)n(S(=O)(=O)c2ccc(F)cc2)n1 | -10%
O=C(Nc1ccc([N+](=O)[O-])cc1)c1cn(-c2ccccc2)nc1-c1cc2ccccc2o1 | -4%
CCOC(=O)Cn1nc(C)n(-c2ccccc2)c1=O | -13%
O=C(NCc1cccs1)C1CCN(C(=O)NCc2ccccc2)CC1 | -4%
CCc1nnc(NC(=O)c2ccc(OC)cc2OC)s1 | -11%
CCCCCCCC#Cc1ccccc1/C=N/S(=O)c1ccc(C)cc1 (configuration not stated) | 13µM*
O=C1CCCCC2CCCCN12 (configuration not stated) | -11%
Cc1cc(C)nc(SCCS(=O)(=O)Cc2ccccc2)n1 | -4%
COC(=O)CN1C(=S)N(c2ccccc2)C(=O)C1CC(=O)Nc1ccc(Cl)cc1 (configuration not stated) | -15%
CN(C)/C=C/C(=O)c1nnn(C2CCCCC2)c1NC1CCCCC1 | -21%
O=C(COC(=O)c1ccccn1)Nc1cc(Cl)ccc1Cl | -4%
CC(=O)N1C(=O)N(C)C2C1N(C(C)=O)C(=O)N2C (configuration not stated) | -4%
O=C(Cc1c[nH]c2ccccc12)N/N=C/c1cccc(F)c1 | -8%
CCN(CC)S(=O)(=O)c1cccc(C(=O)Nc2nncs2)c1 | -1%
COc1ccc(-c2nc3c(c4c2C[C@H](c2ccccc2)OC4)CN(C(=O)c2cccnc2)CC3)c(C)c1 | -9%
CCCCCCSC1=C(C#N)C(c2ccc(C)o2)CC(=O)N1 (configuration not stated) | 32µM*
CCSc1nc(C)cc(C)c1S(=O)(=O)c1ccccc1C | -7%
COc1ccc(OC)c(NC(=O)C2CC(=O)n3ncnc3N2)c1 (configuration not stated) | -7%
O=C(O)c1ccc(COc2cccc(CO)c2)cc1 | -15%
SMILES | HPGD block
CSc1ccc(Cn2nnc(C(=O)Nc3ccc(C)c(C)c3)c2N)cc1 | -29%
O=C(Oc1ccccc1)N1CCC[C@@]2(CCN(c3ccccn3)C2)C1 | ?
CCCOc1ccc(N2C(=O)C3C(C(C)C)NC4(C(=O)c5ccccc5C4=O)C3C2=O)cc1 (configuration not stated) | -10%
CCNC(=S)N1CC(C)OC(C)C1 (configuration not stated) | -13%
Cc1cc2c(cc1C)C(c1cc(Br)ccc1F)CC(=O)N2 (configuration not stated) | -4%
FC(F)(F)c1cnc(Sc2nc3nccc(-c4ccc(Cl)cc4)n3n2)c(Cl)c1 | ?
CCOC(=O)N1CCC(N(CCOC)C(=O)Nc2ccc(Cl)cc2)CC1 | -4%
COc1ccc(C2C(C#N)=C(N)N(c3ccccc3C#N)C3=C2C(=O)CCC3)cc1CN1CCCC1 (configuration not stated) | -5%
CCOC(=O)c1cc(NC(=O)Nc2ccccc2OC)c(C)nc1C | -3%
CC1=CN2C(=N)/C(=C/c3ccc([N+](=O)[O-])o3)C(=O)N=C2S1 | -28%
O=C(CCn1cnc2ccccc2c1=O)Nc1nc2c(s1)CCCC2 | -3%
O=C(NCCO)c1cc2ccccc2c(=O)s1 | -23%
O=C(NCCc1ccccc1)C(=O)NN=C1CCCC1 | -3%
CCOc1ccc(C(=O)NCCN(C)C)cc1 | -6%
Cn1c(=O)[nH]c(=O)c2c1nc(SCCN1CCOCC1)n2CCCc1ccccc1 | 35µM*
CCc1ccc(C(=O)NC(C(=O)O)C(C)C)cc1 (configuration not stated) | 0%
COc1ccc(C2CC(c3ccccc3)=NN2C(=O)CSc2nccc(=O)[nH]2)cc1 (configuration not stated) | -6%
CCOC(=O)CSc1nc2ccccc2c(=O)n1C | -2%
CC(C)OC(=O)CN1C(=O)c2ccccc2C1=O | 6%
CCOC(=O)N1CCN(CC(O)COc2cc(C)ccc2C(C)C)CC1 (configuration not stated) | -8%
CN(C)c1ccc(C(C(=O)NC(C)(C)C)N(C(=O)c2csnn2)C2CC2)cc1 (configuration not stated) | ?
CCc1ccc(NC(=O)CSCCO)cc1 | 20µM*
CCc1nnc(NC(=O)CN2C(=O)/C(=C/c3cc(OC)c(OC)c(OC)c3)SC2=S)s1 | -11%
O=C(CN1CCN(C(=O)c2ccccc2)CC1)Nc1ncc(Br)cc1Br | -2%
Cc1ccc(/C=N/NS(=O)(=O)c2ccc([N+](=O)[O-])cc2)o1 | -3%
O=C(O)c1cc(S(=O)(=O)Nc2ccc(O)cc2)ccc1Cl | -5%
CC(=O)C1C(c2ccc(C)cc2)c2c(n[nH]c2C)CC1(C)O (configuration not stated) | -2%
N#Cc1c(N)c(C(=O)c2ccccc2)n2c1CCCC2 | -10%

Rewritten as labelled records: part of the list above.
> CCc1ccc(NC(=O)CSCCO)cc1
  HPGD block: 20µM*
> CCCOc1ccc(N2C(=O)C3C(C(C)C)NC4(C(=O)c5ccccc5C4=O)C3C2=O)cc1 (configuration not stated)
  HPGD block: -10%
> CCc1ccc(C(=O)NC(C(=O)O)C(C)C)cc1 (configuration not stated)
  HPGD block: 0%
> CCOC(=O)CSc1nc2ccccc2c(=O)n1C
  HPGD block: -2%

High-throughput results from PubChem BioAssay.

A portion of the library; count on the stated rates, not on these rows.
